High-throughput results as filed in PubChem BioAssay.
Anaer choline gr = blocks anaerobic gram-negative growth on choline; Gram-negative bacterium anaerobic choline minimal medium, absorbance growth; stronger effect = lower value; many inactives read as strong as hits in the columns shown; calls only; hit rate 0.2% among 55,000;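 active means growth z-score on choline under -2 at 7 or 20 h with little or no fall on glycerol, limits in tiers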;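 further: stock transfer was 300 nL into about 50 µL; the organism is E. coli; final concentration not given here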
Anaer choline gr early = also measured in Anaer choline gr; calls as there; z-score; measured here: choline growth z-score, timepoint 1;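 score of optical density at 7 h as mean of two plates; lower means less growth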
Numbers without * were called inactive; i = inactive; & = joins results of further samples. A portion of the library; rates above refer to the full screens.

Anaer choline gr	Anaer choline gr early	mol
i	-0.2	O=C(COc1ccccc1)N1CCN(S(=O)(=O)c2cc3c4c(c2)CCN4C(=O)CC3)CC1
i	0.68	O=S(=O)(Cc1ccc(Cl)cc1)Nc1ccc(Cn2cncn2)cc1
i	-0.72	OC[C@H]1O[C@@H](n2cnc3c(N[C@H]4CCC[C@@H]4O)ncnc32)[C@H](O)[C@@H]1O
i	-0.01	C=CCn1nnc(NCc2ccc(-c3cccc(Cl)c3C)o2)n1
i	0.4	O=C(NC1CCCCC1)c1ccc(C2Nc3ccccc3S(=O)(=O)N2)cc1 (stereo unspecified)
i	0.92	CC1CCC(NC(=O)C2(C)Cn3c(cc4occc43)C(=O)N2c2ccc(C(C)C)cc2)CC1 (stereo unspecified)
i	2.1	CCCCOc1ccc(C(=O)NCCc2sc3nc(-c4ccc(C)cc4)nn3c2C)cc1
i	-0.08	COC(=O)c1ccccc1NC(=O)Cn1c(=O)c(CCC(=O)NC2CCCCC2)nc2ccccc21
i	-1.6	CN(C(=O)c1cc2cccnc2n(Cc2ccccc2)c1=O)C1CCCCC1
i	0.03	CCc1onc(C)c1C1CCCN1C(=O)Nc1ccc(Br)cc1F (stereo unspecified)
i	-0.8	COc1ccc(-n2cc[nH]c(=O)c2=O)c(C)c1
i	0.89	O=S(=O)(NC1CCCCC1)c1ccc(-c2cnc(C3CCCC3)o2)s1
i	0.2	CCCS(=O)(=O)c1nc2ccc(NS(=O)(=O)c3c(C)cc(C)cc3C)cc2s1
i	-0.21	COc1cccc(-c2nn(Cc3ccc(C)cc3)c(=O)c3noc(C)c23)c1
i	-0.16	Cn1c(=O)c(SCC(=O)NCCCN2CCc3ccccc3C2)nc2ccccc21
i	0.92	Cc1[nH]c(C(=O)Nc2ccccc2F)c(C)c1S(=O)(=O)N1CCCCC1
i	-1.3	Cc1ccc2nc(N3CCC(C(=O)NCCN4CCN(c5ccccc5F)CC4)CC3)[nH]c2c1
i	-0.75	COc1ccc(CCNS(=O)(=O)c2cc(-c3nc(C)cs3)sc2C)cc1OC
i	0.81	COc1ccc(OC)c(CNC(=O)CCc2nnc(C(=O)Nc3cccc(Cl)c3)s2)c1
i	-0.3	O=C(NC1CCS(=O)(=O)C1)c1cc2n(n1)CCCN(Cc1ccc(F)cc1)C2=O (stereo unspecified)

Reprinted from the entries so far for reference:
Anaer choline gr	Anaer choline gr early	mol
i	0.89	O=S(=O)(NC1CCCCC1)c1ccc(-c2cnc(C3CCCC3)o2)s1
i	0.2	CCCS(=O)(=O)c1nc2ccc(NS(=O)(=O)c3c(C)cc(C)cc3C)cc2s1
i	-0.21	COc1cccc(-c2nn(Cc3ccc(C)cc3)c(=O)c3noc(C)c23)c1
i	-0.16	Cn1c(=O)c(SCC(=O)NCCCN2CCc3ccccc3C2)nc2ccccc21

(more compounds)
Anaer choline gr	Anaer choline gr early	mol
i	-1	Cc1ccc(C)c(NC(=O)Nc2ccccc2OCc2cc(=O)n3cccc(C)c3n2)c1
i	0.74	COc1ccc(-c2cc(C(=O)Oc3ccc(Cl)c(C)c3)no2)cc1
i	1.8	COc1ccc(-c2c(C)nn3c(N4CCC(C(=O)NCCN(C)C)CC4)cc(C)nc23)cc1OC
i	0.6	CCOC(=O)c1c(NC(=O)c2ccc(Cl)cc2)sc2c1CCN(C(C)C)C2
i	-0.71	Cc1ccc(C2CCCCCN2C(=O)NCCC(C)C)s1 (stereo unspecified)
i	0.77	CCC(C)NS(=O)(=O)c1ccc2c(c1)C(C)(C)CN2CC(=O)N1CCCC1 (stereo unspecified)
i	-0.66	CCCn1cnc2nc(CSc3ccccc3NC(=O)Nc3ccc(C)cc3)cc(=O)n21
i	0.19	CN1C(=O)C(C)(C)c2cc(S(=O)(=O)N3CCC(N(C)CC4CCCO4)CC3)ccc21 (stereo unspecified)
i	0.05	CN1CCN(c2oc(-c3ccc(S(=O)(=O)N4CCOCC4)cc3)nc2C#N)CC1
i	-0.13	CN(C)CCNC(=O)c1cnc2sc3c(n2c1=O)CCCCCC3
i	-0.7	CCOc1ccc(N2C(=O)c3cc4sccc4n3CC2(C)C(=O)NC2CCCCC2)cc1 (stereo unspecified)
i	1.8	O=S(=O)(Cc1noc(-c2nccc3ccccc23)n1)c1ccc(Cl)cc1
i	-0.31	Cn1c(=O)n(-c2ccc(F)cc2)c2nc(-c3ccc(Cl)cc3)nc(C(N)=O)c21
i	-0.67	Oc1cccc(Nc2cc(-c3ccccc3)ncn2)c1
i	0.1	CC(C)NC(=O)N1CCCC(c2cccc(C(=O)NCc3ccc(Cl)cc3)c2)C1 (stereo unspecified)
i	0.03	O=C(NCCCN1CCOCC1)c1cnn2c(-c3ccccc3)cc(-c3ccccc3)nc12
i	0.98	COc1ccc(C(=O)NCCc2csc3nc(-c4cccc(F)c4)nn23)cc1OC
i	-1.9	CC(C)c1nn2c(S(=O)(=O)N3CCCCC3)c(C(C)C)nc2s1
i	-0.77	Fc1ccc(CN(C2=NCCN2)c2c(Cl)cccc2Cl)cc1
i	-0.21	Nc1cccc(-c2nnc(Cc3ccc4c(c3)OCO4)o2)c1
i	-0.59	COc1ccc(NS(=O)(=O)c2c(C)nn(-c3ccc(-c4ccc(C)cc4)nn3)c2C)cc1F
i	1.9	CCCCOc1ccccc1C(=O)NCc1csc(-c2ccc(OC)cc2)n1
i	-0.15	CCOC(=O)c1ccc(NC(=O)c2nsc3ccccc23)cc1
i	-0.7	O=C(CCCN1C(=O)C(c2ccccc2)Oc2cccnc21)NCc1cccc(Cl)c1 (stereo unspecified)
i	1.3	O=C(Nc1ccc(N2CCOCC2)cc1)Nc1ccc2snnc2c1
i	0.62	Cc1scc(CN2CCN(Cc3ccc4c(c3)OCO4)CC2)c1C
i	-0.32	O=C(NCCN1CCc2ccccc2C1)Nc1cccc2c1CCCC2
i	-0.16	CN(CC1CCCO1)S(=O)(=O)c1ccc(C(=O)Nc2nc3c(F)cccc3s2)cc1 (stereo unspecified)
i	-0.46	Clc1cccc(-c2nnc(-c3nc(NCc4cccnc4)c4ccccc4n3)o2)c1
i	0.16	CCN(CC)c1nn2c(=O)c(C(=O)NCC3CCCO3)cnc2s1 (stereo unspecified)
i	0.22	O=C(Nc1ccc2c(c1)OCO2)c1nnc(C2CCN(S(=O)(=O)c3ccc(F)cc3)CC2)s1
i	-0.41	CCN(CC)CCCNC(=O)c1cc(C)nc2c1c(=O)n(C)c(=O)n2C
i	-0.31	CC(=O)N1N=C(c2cc(-c3ccccc3)nc3ccccc23)OC1c1ccc(C(=O)O)cc1 (stereo unspecified)
i	-1.6	CC(C)(C)c1ccc(S(=O)(=O)c2c(C(=O)N3CCCCC3)cnc3ccccc23)cc1
i	1.8	O=C(Nc1ccccc1Br)N1CCCCCC1c1cccs1 (stereo unspecified)
i	0.85	COc1cc(NC(=O)c2cc3c(C)nn(-c4ccc(F)cc4)c3s2)cc(OC)c1
i	0.58	COc1ccc(CNC(=O)C2CCN(C(=O)N3CCOc4ccc(Cl)cc43)CC2)cc1
i	-1.2	O=C(Cn1c(=O)nc(-c2ccccc2)c2ccccc21)Nc1ccc2c(c1)OCO2
i	0.17&0.15	CCc1c2c(nc3ccc(O)cc13)-c1cc3c(c(=O)n1C2)COC(=O)[C@]3(O)CC
i	0.34	CCCCNC(=O)c1c2c(nn1C)-c1ccccc1SC2
i	-0.74	COc1ccc(NC(=O)Nc2nnc(SCC(=O)NCc3ccc4c(c3)OCO4)s2)cc1
i	-0.19	O=C(CC1CCCC1)N1CCCN(Cc2noc(-c3ccccc3)n2)CC1
i	0.27	CCOc1ccccc1NC(=O)CSc1nc2ccccc2c(=O)[nH]1
i	-1.3	O=C(c1cnc2sccn2c1=O)N1CCOCC1
i	0.37	CC(C)CCNC(=O)CNC(=O)C1(C)Cn2c(cc3ccccc32)C(=O)N1C (stereo unspecified)
i	0.7	CCCCOc1ccccc1C(=O)Oc1cccc(-n2cnnn2)c1
i	0.92	CCc1n[nH]c(=O)c2cc(S(=O)(=O)N3CCOCC3)cn12
i	1.4	CCOc1ccc2oc(C)c(C(=O)Nc3cc(C)ccc3OC)c2c1
i	0.99&0.58&-0.77&-0.02&0.7	Clc1cccc(Cl)c1NC1=NCCN1
i	-0.83	CC(C)NC(=O)CCc1nc(CS(=O)(=O)c2ccccc2)no1
i	1	O=S(=O)(NC1CCCC1)c1cc(-c2nc(-c3ccc(Cl)cc3)no2)cs1
i	0.46	Cc1ccc(-n2nc(N3CCCN(C(=O)c4ccc(Cl)cc4)CC3)ccc2=O)cc1C
i	0.67	CC(C)NC(=O)Cn1nc2c(N3CCSCC3)nccn2c1=O
i	-0.26	CCOC(=O)c1nc2cc3c(cc2n(Cc2ccccc2)c1=O)N(C(C)=O)CC3
i	-1.4	O=C(Nc1ccc(N2CCN(C(=O)c3ccccc3)CC2)c(Cl)c1)c1cccc(-n2cnnc2)n1
i	0.19	COC(=O)CC1=CC(SCC(=O)c2cc(OC)ccc2OC)=Nc2ccccc2N1
i	-0.16	COc1ccc(Cl)cc1NC(=O)Cn1c(=O)c2c(OC)ccnc2n(C)c1=O
i	0.25	COc1ccc(NC(=O)c2cccc3c2SCCC3=O)cc1OC
i	0.78	Cc1nc2nc3c(c(N4CCN(c5cccc(Cl)c5)CC4)n2n1)CCCC3
i	-1.8	COc1ccccc1NC(=O)C1CCCN(Cc2noc(-c3ccc(C)cc3)n2)C1 (stereo unspecified)

Complete entries as entered above. Order of screens: Anaer choline gr, Anaer choline gr early
`CCOc1ccccc1NC(=O)CSc1nc2ccccc2c(=O)[nH]1` reads i, 0.27
`COc1ccc(NC(=O)Nc2nnc(SCC(=O)NCc3ccc4c(c3)OCO4)s2)cc1` reads i, -0.74

In another format: entries from further up.
| mol | Anaer choline gr | Anaer choline gr early |
| --- | --- | --- |
| COc1ccc(NC(=O)c2cccc3c2SCCC3=O)cc1OC | i | 0.25 |
| Cc1nc2nc3c(c(N4CCN(c5cccc(Cl)c5)CC4)n2n1)CCCC3 | i | 0.78 |

Other compounds
Anaer choline gr	Anaer choline gr early	mol
i	-3	CCN1CCN(C(=O)c2cc3sc(C)c(CN4CCCC4)c3[nH]2)CC1
i	0.65	CCN1C(=O)COc2ccc(-c3noc(C(C)Oc4ccccc4)n3)cc21 (stereo unspecified)
i	-0.6	Cc1cccc(C2CN(C)CCc3c2cc(O)c(O)c3Cl)c1 (stereo unspecified)
i	-1.9	CCN1CCN(C(=O)C2(c3ccc(NS(=O)(=O)CC)cc3)CCCCC2)CC1
i	-0.22	COc1cc(OC)c(NC(=O)C2CCN(C(=O)c3ccc(-c4noc(C)n4)cc3)CC2)cc1Cl
i	-0.53	COc1cccc(CNC(=O)CN2C(=O)C(C)=C(c3ccc(C)c(C)c3)S2(=O)=O)c1
i	0.54	COc1cc(OC)c(NS(=O)(=O)c2c(C)sc(C)c2-c2cc(C(F)(F)F)on2)cc1Cl
i	0.06	CCc1ccc(NC(=O)Cn2nc(C(=O)Nc3ccccc3)ccc2=O)cc1
i	0.05	O=C(Cn1ccc2c(SCc3ccccc3)nccc21)N1CCN(c2ccc(F)cc2)CC1
i	0.94	Cn1c(=O)n(Cc2ccc(F)cc2Cl)c(=O)c2cnc(-c3cccnc3)nc21
i	-0.49	CC(C)c1ccc(-c2ccc(SCc3nc(-c4ccc5c(c4)OCO5)no3)nn2)cc1
i	0.38	Cc1cc(N(C)C)n2nc(CN3CCCC(C)C3)nc2n1 (stereo unspecified)
i	0.17	COCCCNC(=O)c1cc(C)nc2c1c(=O)n(C)c(=O)n2C
i	-0.33	COc1ccc(N2CC(c3nnc(NC(=O)COc4ccccc4C)o3)CC2=O)cc1 (stereo unspecified)
i	0.45	CCn1nc(C)c(CCN(C)C(=O)Nc2ccccc2)c1C
i	0.55	COc1ccc(OC)c(NS(=O)(=O)c2c(C)sc(C)c2-c2cc(C(F)(F)F)on2)c1
i	0.06	O=C(NCC1CCCCC1)C1CCN(c2cncnc2N2CCOCC2)CC1
i	0.62	O=C(CC1CCN(C(=O)c2cc3cc(Cl)ccc3[nH]2)CC1)N1CCN(c2ccccn2)CC1
i	0.54	O=S(=O)(NCCOc1ccc(-c2ccccc2)nn1)c1cccc(Cl)c1
i	-0.34	O=C(NCC1CC1)c1sc2ncccc2c1-n1cccc1
i	-0.02	O=C(NCC1CCCO1)c1nc(CS(=O)(=O)c2ccc(Cl)cc2)no1 (stereo unspecified)
i	0.23	O=C(NCCc1c[nH]c2ccccc12)c1cn(-c2ccc(F)cc2)nn1
i	0.22	CC(=O)Nc1ccc(NC(=O)C2=Cc3cc(C)ccc3OC=C2)cc1
i	-0.73	Cc1cc(C)c(S(=O)(=O)Nc2ccccc2C(F)(F)F)c(C)c1
i	1.3	CCOC(=O)c1c(S(=O)(=O)N2CCC(C(=O)Nc3ccc(C)cn3)CC2)c(C)n(C)c1C
i	0.04	Cc1ccc(-c2nc3n(c2CNC(=O)c2cncc(Br)c2)CCS3)cc1
i	0.25	COC(=O)Cn1nc2ccc(S(=O)(=O)N3CCC(C)CC3)cn2c1=O
i	0.72	Cc1ccc(C)c(NC(=O)N2CCN(c3nc4cc(F)ccc4n4cccc34)CC2)c1
i	-0.05	CCS(=O)(=O)c1nc2ccc(NS(=O)(=O)c3cc(C)c(C)cc3C)cc2s1
i	-1.1	CNC(=O)C1CCCN(c2nc3ncn(CC(=O)NCC4CCCO4)c(=O)c3s2)C1 (stereo unspecified)
i	1.1	CCc1ccccc1NC(=O)CSc1ncc2c(n1)-c1ccccc1N(Cc1ccccc1)S2(=O)=O
i	0.59	CCOc1cc(C2CC(=O)Nc3c2c(C)nn3-c2ccc3nnc(C)n3n2)ccc1O (stereo unspecified)

6 compounds already listed, arranged by length of the SMILES, ascending.
Anaer choline gr	Anaer choline gr early	mol
i	-0.73	Cc1cc(C)c(S(=O)(=O)Nc2ccccc2C(F)(F)F)c(C)c1
i	-0.02	O=C(NCC1CCCO1)c1nc(CS(=O)(=O)c2ccc(Cl)cc2)no1 (stereo unspecified)
i	0.59	CCOc1cc(C2CC(=O)Nc3c2c(C)nn3-c2ccc3nnc(C)n3n2)ccc1O (stereo unspecified)
i	0.72	Cc1ccc(C)c(NC(=O)N2CCN(c3nc4cc(F)ccc4n4cccc34)CC2)c1
i	1.1	CCc1ccccc1NC(=O)CSc1ncc2c(n1)-c1ccccc1N(Cc1ccccc1)S2(=O)=O
i	1.3	CCOC(=O)c1c(S(=O)(=O)N2CCC(C(=O)Nc3ccc(C)cn3)CC2)c(C)n(C)c1C
